Screens: PubChem, several laboratories
LANA-H2B inh = blocks KSHV LANA binding to histone H2A/H2B; Q9QR71; cell-free LANA-H2A/H2B peptide, fluorescence polarization; inhibition, % (concentration not given with the values); 0.6% of 320,000 active; AID 2629; in the data active means inhibition mostly above about 10%, no sharp cut-off; inactive means mostly below about 6.7%;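 further: stock transfer was 7.5 nL into about 10 µL; 0% = median of vehicle wells and 100% = median of positive control wells; one replicate is shown; the record names a cut of 25% in any replicate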
Beta cell apopt = blocks beta cell apoptosis; INS-1E cytokine-induced death, ATP luminescence, 48 h; percent of positive-control rescue, neutral wells zero; protection from apoptosis, % (no concentration beside the values); 0.8% of 300,000 active;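 active means all replicates at 75% or more, or half of them and the mean; inconclusive means half reach 75% but not the mean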;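 further: 0% = cytokine-treated negative control wells and 100% = positive control rescue; higher means more ATP so stronger rescue from cytokine killing; wells of about 40 µL received 100 nL stock; the first replicate is given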
Calb FLC = C. albicans growth modulation with fluconazole; C. albicans CaCi-2 (fluconazole-resistant clinical isolate) + fluconazole, Alamar Blue growth, 48 h; growth inhibition, % (concentration not given with the values); 0.57% of 300,000 active;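 active means most replicates above 75%; inconclusive means exactly half above 75%; inactive means most below 75%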;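 further: all wells also contain fluconazole at 8 µg/ml as a sub-toxic cotreatment; 0% = median of DMSO wells and 100% = median of geldanamycin control wells; wells of about 8 µL received 7.5 nL stock; the first replicate is given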
ALR inh = inhibitors of human sulfhydryl oxidase ALR; purified ALR, DTT oxidation, H2O2 HRP-luminol luminescence; inhibition, % (no concentration beside the values); 3.8% of 290,000 active; AID 485317;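 active means mean and each replicate at 75% or more; inconclusive means only one of the two met; inactive means neither met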;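 further: stock transfer was 7.5 nL into about 7.5 µL; 0% = neutral wells and 100% = wells with inactivated enzyme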
Target sequence (P55789 whole entry, looked up): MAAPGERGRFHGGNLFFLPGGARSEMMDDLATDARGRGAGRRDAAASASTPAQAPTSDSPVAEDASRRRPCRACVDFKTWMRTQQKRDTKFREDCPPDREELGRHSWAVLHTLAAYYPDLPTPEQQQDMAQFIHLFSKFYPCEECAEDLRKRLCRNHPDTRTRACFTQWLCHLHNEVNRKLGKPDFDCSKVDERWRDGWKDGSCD
T cruzi inh = T. cruzi replication inhibition; T. cruzi beta-gal in NIH3T3, luminescence, 90 h; inhibition, % (test concentration not listed); 1.4% of 300,000 active; AID 1885;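 active means mean inhibition across valid replicates above about 55%, limit read from the data; inconclusive means mean below that limit but half or more replicates reach it; inactive means mean below it, under half of replicates reach it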;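 further: signal also drops with host cell toxicity which is not excluded here; 0% = plate median of DMSO wells and 100% = zero luminescence signal; higher percent means less beta-gal luminescence so fewer parasites; stock transfer was 50 nL into about 50 µL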
B2AR ag = agonists of human beta-2 adrenergic receptor inducing internalization. P07550. Am2.2-beta2AR cells, FAP receptor internalization, flow cytometry; reference of the scale not given here. response, % (concentration not given with the values). 0.43% of 340,000 active;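 active means response above a set limit, near 3 SD of response in nonfluorescent compounds, cut at about 42% in these data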;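 further: stock transfer was 100 nL into about 11 µL; a reference agonist was the positive control; negative values mostly stem from fluorescent compounds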
Target sequence (P07550 whole entry, looked up): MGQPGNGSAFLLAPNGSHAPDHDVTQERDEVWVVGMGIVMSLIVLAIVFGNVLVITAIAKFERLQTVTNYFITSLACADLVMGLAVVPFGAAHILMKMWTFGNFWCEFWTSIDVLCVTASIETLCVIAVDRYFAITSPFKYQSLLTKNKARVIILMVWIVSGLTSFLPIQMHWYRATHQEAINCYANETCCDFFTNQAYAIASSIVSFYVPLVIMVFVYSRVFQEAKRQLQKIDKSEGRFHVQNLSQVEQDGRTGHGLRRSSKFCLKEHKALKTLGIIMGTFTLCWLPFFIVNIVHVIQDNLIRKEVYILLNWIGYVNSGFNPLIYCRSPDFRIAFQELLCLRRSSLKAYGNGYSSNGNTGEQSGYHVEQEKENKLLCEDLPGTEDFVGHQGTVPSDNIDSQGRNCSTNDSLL
Bfl-1 A1 inh = inhibitors of the anti-apoptotic protein A1, read as caspase activation. MEF A1-2A-BIM cells, Caspase-Glo 3/7 luminescence, 3 h; percent of clofoctol response, vehicle zero. caspase activation, % (no concentration beside the values). 0.066% of 330,000 active;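 active means over half of replicate activation scores above 10%, or exactly half above 10 with the replicate mean above 10; inconclusive means replicate mean below 10 yet half the replicates above 10; inactive means over half of replicates below 10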;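 further: wells of about 30 µL received 50 nL stock; many hits fall short of the cut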
rRNA inh HTS = selective bacterial rRNA inhibition in E. coli | 1.6% of 350,000 active | E. coli WT GFP vs humanized-ribosome RFP mutants, fluorescence, 24 h; stronger effect = lower value; DMSO median 0, no signal -100 | GFP signal change (wild-type ribosome), % (test concentration not listed);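 active means significant combined selectivity score with lowered wild-type GFP, culture density cut under 30%, mutant RFP and density less affected; inactive means any of these conditions unmet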; further: one replicate is shown; some compounds called inactive have numbers as strong as hits
rRNA inh HTS OD600 = second read-out of rRNA inh HTS, no call of its own (marks repeat the call); OD600 change, %; measured here: OD600 growth;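 optical density of the mix in the first replicate; 0 = DMSO median and -100 = no signal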
rRNA inh HTS RFP = further read-out of rRNA inh HTS, marked with its call; RFP signal change, %; measured here: RFP humanized mutant strains;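 first replicate; 0 = DMSO median and -100 = no signal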
* = called active by the depositor; ? = inconclusive; . = no result given; & = joins results of further samples. This is a subset, so the mix of outcomes need not match the whole.

SMILES | LANA-H2B inh | Beta cell apopt | Calb FLC | ALR inh | T cruzi inh | B2AR ag | Bfl-1 A1 inh | rRNA inh HTS | rRNA inh HTS OD600 | rRNA inh HTS RFP
Cc1ccc(C(C)C)cc1S(=O)(=O)NCc1cccnc1 | -0.1 | -2 | ? | 0 | -13 | -5 | -0.8 | . | . | .
CCCOC(=O)NC1CCS(=O)(=O)C1 (configuration not stated) | 3.3 | -4 | 4 | -23 | -20 | -1 | 0.0 | . | . | .
CCCCCCNC(=O)CNC(=S)N(Cc1cccs1)C1CCCCC1 | 1.4 | 1 | -19 | 4 | 46 | 1 | -0.9 | -6 | -19 | 7.9
CC(C)c1nc2oc3c(N(C)CCO)ncnc3c2c2c1CCC2 | -0.5 | -8 | -5 | -2 | 21 | -10 | -0.8 | -1 | -7 | -0.5
Cc1ccc(N(CC(=O)NCC(O)c2ccccc2)S(=O)(=O)c2ccc(C)cc2)cc1 (configuration not stated) | -6.8 | -3 | -10 | 2 | 0 | 10 | 0.6 | -7 | -12 | 4.7
CCn1c2ccccc2c2nn(C)c(=N)nc21 | 0.2 | 9 | -20 | -9 | 45 | -10 | 1.0 | . | . | .
CCN(CC)C(=O)CSC1=Nc2ccccc2C2=NC(Cc3c[nH]c4ccccc34)C(=O)N12 (configuration not stated) | 1.0 | 0 | -13 | . | -4 | 1 | 1.2 | . | . | .
CC1CCCCC1NC(=O)CN1C(=O)NC(Cc2ccccc2)(Cc2ccccc2)C1=O (configuration not stated) | -0.2 | -4 | -7 | -11 | -1 | -2 | -0.6 | . | . | .
C[C@H](CO)N1C[C@H](C)[C@@H](CN(C)C(=O)NC2CCCCC2)Oc2c(NC(=O)Nc3ccc(C(F)(F)F)cc3)cccc2C1=O | 12 | ? | . | -6 | . | 2 | -0.3 | 4&5 | 5&8 | -7.9&-2.7
COc1ccc(S(=O)(=O)Nc2ccccc2C(=O)N2CCOCC2)cc1C | 0.5 | -5 | 0 | 4 | -9 | -2 | 0.9 | -1 | -2 | -0.1
O=C1CC(NC(=O)c2ccc(Cl)cc2)C(=O)N1 (configuration not stated) | -2.3 | 0 | 3 | -6 | -11 | -4 | 0.0 | 13 | 17 | -0.2
CCOc1ccc(NC(=O)c2cc(C3CC3)nc3c2cnn3C(C)C)cc1OC | -3.4 | 2 | . | -3 | . | 12 | 0.9 | -11 | -31 | -0.8
COc1cc(CO)ccc1OCc1ccc(Cl)nc1 | -1.1 | 2 | 4 | -8 | -10 | 11 | 0.9 | 13 | 10 | -0.7
COc1ccccc1C(CNC(=O)c1cccc(S(=O)(=O)Nc2ccc(F)cc2)c1)N(C)C (configuration not stated) | -9.6 | 1 | . | -11 | . | 20 | 1.9 | 2 | -5 | 0.4
COc1cccc(NC(=O)CCN2CCC(C(N)=O)CC2)c1 | 1.4 | -5 | -8 | . | -13 | -2 | 1.0 | . | . | .
O=C(c1ccco1)N1CCN(C(=O)c2ccc(-c3cccc(C(F)(F)F)c3)o2)CC1 | -0.4 | 3 | 6 | 32 | 8 | -8 | 0.3 | -3 | 2 | 0.6
COc1cccc(CNC(=O)C2CCN(S(=O)(=O)c3ccc4c(c3)NC(=O)C(C)S4)CC2)c1 (configuration not stated) | -1.5 | -3 | -3 | -6 | 4 | -3 | -0.1 | -12 | -14 | 3.9
CCOc1cc(C(=O)Nc2ccc(C)cc2O)ccc1OCC(=O)N1CCOCC1 | -2.7 | . | 6 | -4 | 3 | 14 | 2.2 | 5 | 2 | 2.7
CCN(CC)S(=O)(=O)c1ccc(C)c(NC(=S)N2CCN(Cc3ccc4c(c3)OCO4)CC2)c1 | -2.9 | . | -36 | 0 | 5 | 3 | 0.7 | -19 | -35 | -7.1
Cc1ccc(S(=O)(=O)N(C)CC(=O)NCCCc2ccccc2)cc1 | -2.9 | 1 | 2 | . | -1 | 2 | -0.2 | -24* | -18* | -3.5*
COc1ccc(NC(=O)N2CCc3ccccc3C2)cc1OC | -0.6 | 3 | -11 | -16 | 1 | 1 | 0.0 | -2 | -2 | -1.7
O=C(O)Cc1ccc(NC(=O)C2CC=CCC2C(=O)O)cc1 (configuration not stated) | 6.3 | -6 | -1 | -10 | -9 | . | -0.1 | . | . | .
O=C(CSC1=NCCS1)NC(c1ccccc1)c1ccccc1 | 4.0 | -2 | -2 | . | 51 | 0 | 0.2 | 14 | 16 | -9.2
CC(C)CNC(=O)C(=O)NCc1ccccc1 | -1.9 | -1 | -20 | -2 | -1 | 9 | 0.6 | 24 | 14 | 3.0
CCOC(=O)C1(C(=O)OCC)CC1c1ccccc1 (configuration not stated) | -0.1 | -3 | -4 | -6 | -14 | 8 | 0.0 | . | . | .
CN(C)S(=O)(=O)NCC1CCCN(Cc2cc3ccccc3s2)C1 (configuration not stated) | -5.2 | 3 | -6 | . | 38 | 8 | 1.3 | 3 | 2 | -4.8
CCC(C)C1NC(=S)N(Cc2ccccc2)C1=O (configuration not stated) | -3.8 | 1 | -13 | 5 | 2 | -6 | 0.0 | . | . | .
COc1cc(/C=N/N2CCOCC2)ccc1OCc1ccc(Cl)cc1 | 1.5 | -3 | -2 | -3 | 8 | 6 | -0.1 | 11 | 1 | 0.1
CCOC(=O)C1CCN(C(=O)c2cccc(Cl)c2)CC1 | -1.2 | 1 | 2 | 0 | -4 | 6 | -0.1 | . | . | .
Cc1ccc(NC2=NCCC2)cc1Cl | -1.0 | -2 | -26 | . | 7 | -6 | -1.3 | . | . | .
Cc1ccc(-n2c(C)cc(/C=N/NC(=O)Cn3c4ccccc4c(=O)c4ccccc43)c2C)cc1 | 7.5 | -2 | 24 | -6 | 19 | 11 | -0.3 | 4 | -13 | 0.4
CCOC(=O)N1CCN(Cc2ccc(O)c3ncccc23)CC1 | 1.5 | -1 | 82* | 6 | 34 | . | -0.7 | -13 | -14 | -7.4
COC(=O)c1ccc(/C=N\NC(=O)c2c(C)nc3ccc(Cl)cn23)cc1 | 7.3 | 0 | -25 | -4 | -9 | -4 | 1.2 | . | . | .
CCn1c(=O)c(C(=O)CC#N)c(N)n(Cc2ccccc2)c1=O | 4.4 | 6 | 8 | -4 | 3 | 1 | 0.3 | 2 | 7 | 7.4
NC(=O)c1nsc(C(=O)N(CC(=O)NC2CCCC2)c2cnc3ccccc3c2)c1N | -3.5 | -2 | -3 | 2 | 0 | . | 0.0 | . | . | .
CCCC(=O)N1N=C(c2ccccc2)CC1c1cn(C)c2ccccc12 (configuration not stated) | 0.2 | 11 | 2 | -7 | -4 | 5 | 0.0 | . | . | .
Cc1ccc2nc3n(c(=O)c2c1)-c1ccccc1C(=O)NC3Cc1ccc(O)cc1 (configuration not stated) | 0.8 | -5 | . | 10 | . | . | 1.3 | -4 | -1 | 10
Cc1cccc(OCCCC(=O)N2CCCc3ccccc32)c1C | -0.8 | -15 | 5 | -7 | 1 | -3 | -0.2 | -48 | -71 | -22
C=CCNC(=O)COc1coc(CN2CCN(C(=O)c3ccco3)CC2)cc1=O | -1.6 | . | 2 | 2 | -15 | -1 | 0.5 | 9 | 17 | 1.1
COC(=O)c1cc(NS(=O)(=O)c2ccc(F)cc2)ccc1N1CCOCC1 | 1.8 | 0 | -2 | -3 | -8 | 2 | 0.9 | 2 | 6 | -0.9
Cc1ccccc1C(=O)NNC(=O)c1ccc(F)cc1 | -2.2 | -5 | 0 | -2 | -3 | 10 | -0.3 | . | . | .
Cc1ccc(CNC(=O)C2CCCCN2S(=O)(=O)c2ccccc2)cc1 (configuration not stated) | -1.8 | . | -5 | -2 | -10 | -1 | 1.4 | -5 | -10 | -1.3
O=C(Cc1ccccc1)NCc1ccc(-n2cccc2)cc1 | 0.3 | 2 | 2 | -22 | -38 | -1 | 1.0 | 22 | 20 | -0.1
O=C(CCc1ccccc1)Nc1ccnn1C1CCN(Cc2ccc(OCCO)cc2)CC1 | 2.6 | -2 | -4 | -4 | 12 | -6 | -0.2 | 14 | 3 | 3.9
CC1(C)CC(NC(=O)c2cc(S(=O)(=O)N3CCCCC3)ccc2Cl)CC(C)(C)N1 | 0.9 | -3 | 30 | -2 | 13 | 0 | 0.2 | 20 | 15 | 2.9
Cc1ccc(OCCCn2ccnc2)cc1C | 0.3 | 2 | -20 | 1 | 41 | 2 | -0.2 | . | . | .
Cc1ccc(C(=O)OC(C)CN2CCN(C)CC2)cc1 (configuration not stated) | -1.5 | -5 | 0 | -4 | . | 7 | 1.7 | 16 | -1 | 1.5
CCCS(=O)(=O)N1CCN=C1SCc1ccc(F)cc1 | -4.3 | -2 | -3 | 92* | 17 | -5 | 0.3 | 0 | 2 | -1.9
CCOc1ccc(N(CC(=O)NCCc2ccccc2)S(=O)(=O)c2ccccc2)cc1 | 1.3 | 2 | 4 | -4 | 10 | -9 | 0.2 | 2 | -2 | -2.8
CCOc1ccccc1CNC(=O)C1CCCN(c2ncnc3c2nc2n3CCCCC2)C1 (configuration not stated) | 0.3 | 3 | -9 | 2 | 21 | -14 | 0.3 | . | . | .
CCOC(=O)c1c(C)n(C)c2ccc(OCC(O)Cn3c(C)nc4ccccc43)cc12 (configuration not stated) | -2.8 | -1 | -15 | -3 | 37 | 23 | -0.6 | . | . | .
Cc1ccc(C(=O)N(C)Cc2ccc(N3CCOCC3)cc2)cc1S(=O)(=O)NCc1ccccc1 | 3.2 | -5 | . | 4 | . | -12 | 1.6 | -2 | -12 | 1.5
O=C(CSc1n[nH]c(=O)n1Cc1ccco1)c1ccc(F)cc1 | -6.5 | -5 | 3 | 47 | 6 | 2 | 0.1 | 2 | -6 | 0.6
Cc1ccc(NNC(=O)c2ccc(Cl)cc2)nn1 | -3.9 | -7 | 1 | 2 | -26 | 2 | -0.6 | 5 | 4 | -1.6
O=C(CCC(=O)NNC(=O)c1ccccc1[N+](=O)[O-])NCc1ccccc1 | -0.1 | . | -9 | -7 | -16 | -2 | 0.8 | 15 | 16 | 2.2
Cc1ccc(-n2cc(CN3CCC(CO)(Cc4cccc(C(F)(F)F)c4)CC3)cn2)cc1 | 1.1 | 11 | 7 | -25 | 61* | 38 | -0.2 | -61 | -83 | -24
CCN(CC(=O)Nc1ccc(NC(C)=O)cc1)C(=O)c1ccccc1Sc1ccccc1C#N | -1.3 | 0 | . | . | . | 6 | -0.7 | 1 | 6 | 0.0
CC1CCCN(S(=O)(=O)c2ccc(CN3C(=O)c4cccnc4C3=O)cc2)C1 (configuration not stated) | 0.7 | -2 | -1 | -1 | 1 | 3 | -0.2 | 7 | 8 | -1.4
O=c1c2ccccc2nnn1CCO | -0.6 | -6 | -6 | 2 | 0 | 3 | -0.2 | 12 | 9 | 2.0
